# Screening results from PubChem.
# Mtb betalactam = beta-lactam sensitization of Mtb H37Rv | inhibition, % at 25 µM | AID 434955 | M. tuberculosis H37Rv growth with meropenem, percent inhibition; hits of this screen are not shown here | 330,000 compounds, 0.27% hits;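 active means about 74% or more and at least 40 points above the plate without the antibiotic, then above 30% in a dose series; inconclusive means first-round hits that could not be retested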;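 further: growth measured after seven days incubation then overnight dye step; 0% = bacteria only wells and 100% = bacteria with antibiotic; twin plates without the antibiotic show which effects depend on it; some results filed as inactive read as strong as hits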
# The depositor's hits bear a star; u = inconclusive.
SMILES,Mtb betalactam
COC(=O)C1=C(c2ccc(OCc3ccccc3)cc2)C[C@@H]2CC[C@H]1N2C(=O)NC1CCN(Cc2ccccc2)CC1,97
COc1ccc(-c2cc3onc(-c4c(Cl)cccc4Cl)c3c(=O)n2C)cc1,27
COc1ccc(C(=O)Nc2cccc(S(=O)(=O)NCc3ccco3)c2)cc1,-4
CCOC(=O)N1CCN(C(=O)COC(=O)c2cc(C)ccc2C)CC1,-7
NC(=O)c1ccc(NC(=O)CN2CCN(S(=O)(=O)c3ccc4c(c3)OCCO4)CC2)cc1,-10
CCOc1cc(N2CCOCC2)c(OCC)cc1NC(=O)c1[nH]c(C)c(C(C)=O)c1C,8
CN1CCCN(C(=O)CNC(=O)c2ccc(Cl)cc2Cl)CC1,4
CC/C=C\C/C=C\C/C=C\CCCCCCCC(=O)O,-7
COc1cc2cnc(C3=CCCCC3)cc2cc1OC,53
N#Cc1ccc(S(=O)(=O)N2CCC(C(=O)Nc3cccc(C(=O)NC4CC4)c3)CC2)cc1,-6
Cc1ccc(S(=O)(=O)N2CCN(C(=O)CSc3n[nH]c(N)n3)CC2)c(C)c1,-4
CN(C(=O)c1ccc(NC(=O)Cc2ccc(NC(=O)C3CCN(C(=O)CCc4ccccc4)CC3)cc2)cc1)C1CC1,7
CSc1ccccc1NC(=O)COC(=O)c1ccc(-n2nc(C)cc2C)cc1,97
O=C(NCC(O)c1ccc([N+](=O)[O-])cc1)C1=COCCO1 (stereo not drawn),-10
COc1cc(CCC(=O)NC2(C)CCS(=O)(=O)C2)cc(OC)c1OC (stereo not drawn),-3
O=C(COC(=O)c1ccc(Cl)nc1)NCCc1ccccc1,-3
CC(=O)c1c(C)[nH]c(C(=O)COC(=O)c2c(-c3ccccc3)noc2C)c1C,1
COc1ccc2ccc(O)c(CN3CCN(S(=O)(=O)c4cccc(C(F)(F)F)c4)CC3)c2c1,13
CN(C)S(=O)(=O)c1cccc(NC(=O)CCc2nc3sc4c(c3c(=O)[nH]2)CCCC4)c1,97
CC(C)NC(=O)N1CCN(c2ccncc2S(=O)(=O)N2CCCCC2)CC1,-6

# Seven compounds drawn at random from the list so far:
SMILES,Mtb betalactam
CC/C=C\C/C=C\C/C=C\CCCCCCCC(=O)O,-7
NC(=O)c1ccc(NC(=O)CN2CCN(S(=O)(=O)c3ccc4c(c3)OCCO4)CC2)cc1,-10
CCOC(=O)N1CCN(C(=O)COC(=O)c2cc(C)ccc2C)CC1,-7
O=C(NCC(O)c1ccc([N+](=O)[O-])cc1)C1=COCCO1 (stereo not drawn),-10
COc1cc(CCC(=O)NC2(C)CCS(=O)(=O)C2)cc(OC)c1OC (stereo not drawn),-3
CCOc1cc(N2CCOCC2)c(OCC)cc1NC(=O)c1[nH]c(C)c(C(C)=O)c1C,8
COc1ccc2ccc(O)c(CN3CCN(S(=O)(=O)c4cccc(C(F)(F)F)c4)CC3)c2c1,13

# (cont.)
SMILES,Mtb betalactam
C#CCOCCOCCOCCNc1nc(N2CCOCC2)nc(N2CCN(C(=O)CCCCCCCCCCNC(=O)[C@@H](CCC(=O)O)n3cc(CCCCCN)nn3)CC2)n1,2
Cc1c(NC(=O)CSc2nc3ccccc3c(=O)n2C(C)C)c(=O)n(-c2ccccc2)n1C,-8
Cc1ccccc1OCC(=O)OCC(=O)NCC1CCCCC1,2
CCN(CC(=O)Nc1c(F)cccc1F)C(=O)c1ccccn1,2
c1ccc(COc2cncc(-c3cccnc3)c2)cc1,46
O=C(CNc1cccc([N+](=O)[O-])c1)NC(=O)NC1CCCCC1,3
C[C@@H]1CN([C@H](C)CO)C(=O)c2cc(NC(=O)Cc3ccccc3)ccc2O[C@H]1CN(C)Cc1ccc(Oc2ccccc2)cc1,76
O=C(COC(=O)COc1ccccc1)Nc1ccc(Cl)cn1,-2
CCN(CC)c1ccc(N)cc1,100
O=C(CSc1nnc(C2CC2)n1C1CC1)c1ccc(F)cc1,-10
O=S(=O)(c1ccccc1F)N1CCN(c2nc(-c3cccnc3)nc3ccccc23)CC1,4
CC(C)Sc1nnc(SCC(=O)N(C)C2CCS(=O)(=O)C2)s1 (stereo not drawn),-2
COc1ccc(C(=O)NC2CC2)cc1OC1CCN(Cc2ccc(Cl)cc2)CC1,u
CC(Sc1ncnc2sccc12)C(=O)Nc1ccc(S(N)(=O)=O)cc1 (stereo not drawn),1
NS(=O)(=O)c1cccc(NC(=O)COC(=O)c2cc([N+](=O)[O-])ccc2N2CCCC2)c1,3
Cc1nc2ccc(Br)cc2c(=O)n1-c1ccc([N+](=O)[O-])c(C(F)(F)F)c1,4
CCOC(=O)C1=C(C)NC(C)=C(C(=O)OCC)C1C(=O)OCC(=O)NC1CCCCC1,1
O=C(COC(=O)c1cc(=O)[nH]c2ccccc12)NCc1ccccc1,-7
CC(C)(C)[C@@H]1COC(=O)[C@@H](NC(=O)OCC2c3ccccc3-c3ccccc32)C/C=C\C[C@@H](CC(=O)NCCO)C(=O)N1,6
CCOC(=O)C1=C(COC(=O)c2ccc([N+](=O)[O-])s2)NC(=O)NC1C (stereo not drawn),15

# 4 successive records out of the list so far:
SMILES,Mtb betalactam
CCN(CC(=O)Nc1c(F)cccc1F)C(=O)c1ccccn1,2
c1ccc(COc2cncc(-c3cccnc3)c2)cc1,46
O=C(CNc1cccc([N+](=O)[O-])c1)NC(=O)NC1CCCCC1,3
C[C@@H]1CN([C@H](C)CO)C(=O)c2cc(NC(=O)Cc3ccccc3)ccc2O[C@H]1CN(C)Cc1ccc(Oc2ccccc2)cc1,76

# Next section.
SMILES,Mtb betalactam
CC(=O)c1ccc(S(=O)(=O)NCC(=O)Nc2nc3ccccc3[nH]2)cc1,0
COc1cc2ccccc2cc1C(=O)NC1CCCC1,3
COc1ccc2nc(SCC(=O)N(C)C3CCCCC3)[nH]c2c1,-1
O=C(NCC1CCCN(Cc2nccs2)C1)c1cccc2ccccc12 (stereo not drawn),u
CC[C@H](C)C(N)c1cn(C(CCCN=C(N)N)C(=O)N2CCNCC2)nn1 (stereo partly drawn),-4
COc1ccc(NC(=O)c2ccc(NC(=O)CN3CCN(c4ccccc4)CC3)cc2)cc1,2
C[C@H](CO)N1C[C@H](C)[C@@H](CN(C)Cc2ccccc2)Oc2c(NC(=O)C3CC3)cccc2C1=O,-3
Cc1cccc(C(=O)NCCC(=O)NCc2ccccc2F)c1,2
N#Cc1ccc(OCC(=O)N2CCc3ccccc32)cc1,1
CS(=O)(=O)c1ccc(Cl)c(NC(=O)COC(=O)CNC(=O)c2cccs2)c1,-9
COc1ccc(S(=O)(=O)N2CCN(C(=O)C3COc4ccccc4O3)CC2)cc1 (stereo not drawn),0
Cc1ccc(NC(=O)C=NOCC(=O)Nc2cc(C)cc(C)c2)cc1,-5
Cc1nc2ccc(NC(=O)c3oc4ccc(F)cc4c3C)cc2s1,6
Cc1ccc(C(=O)Nc2cccc(S(=O)(=O)N(C)c3ccccc3)c2)o1,6
Cc1ccccc1C(=O)NCC(=O)OCC(=O)NC(C)C1CC2CCC1C2 (stereo not drawn),-15
Cc1ccc(CONC(=O)c2ccc([N+](=O)[O-])cc2)cc1,5
COc1cc(C(=O)NN2C(=O)NC3(CCC(C)CC3)C2=O)ccc1OC(F)F (stereo not drawn),-5
Cc1cc(=O)oc2cc(OCC(=O)OC(C)C(=O)Nc3ccc(S(N)(=O)=O)cc3)ccc12 (stereo not drawn),-2
NC(=S)N/N=C/c1ccc(C23CC4CC(CC(C4)C2)C3)cc1,87
Cc1ccc(C(=O)OCc2cc(=O)n3c(C)csc3n2)s1,1
NS(=O)(=O)c1ccc(NC(=O)CSc2nc3ccccc3c(=O)n2Cc2ccncc2)cc1,2
O=C1CCN(Cc2ccccc2)C=C1c1ccc(Br)cc1,4
COc1ccc(CCC(=O)N2CCN(S(=O)(=O)c3cccc(Cl)c3)CC2)cc1,6
CCN(C[C@H]1N[C@@](CC)(C(=O)OC)[C@H]2C(=O)N(Cc3ccccc3)C(=O)[C@@H]12)S(=O)(=O)c1ccc(OC)cc1,-7
COc1ccc(CCN2CC(C(=O)N3CCCCCC3)CCC2=O)cc1 (stereo not drawn),u
C=CC[C@H](CC(=O)N(CCO)Cc1ccccc1)C(=O)N[C@@H](C)COC(=O)[C@@H](CC=C)Cc1ccc(F)cc1,-15
COc1cccc(NC(=O)COC(=O)CCC(=O)c2cccs2)c1,-4
Cc1ccc(S(=O)(=O)NCCC(=O)NCCc2ccc(S(N)(=O)=O)cc2)cc1C,-6
CCOc1ccc(S(=O)(=O)N2CCCC(C(=O)N3CCC(C(N)=O)CC3)C2)cc1Cl (stereo not drawn),-4
OCC[C@H]1C[C@@H](O)[C@H](O)[C@@]2(Cc3ccccc3CCO2)O1,-12
Cc1ccc(NC(=O)Cc2ccc(Cl)cc2)cc1S(=O)(=O)N1CCCCCC1,5
O=C(OCc1nnc(-c2ccccc2Br)o1)c1ccco1,1
COc1ccc(/C=C/C(=O)OCC(=O)NC2CCCC2)cc1OC,-1
Cc1cc(C(=O)Nc2cccc3c2O[C@H](CN(C)CC2CC2)[C@@H](C)CN([C@H](C)CO)C3=O)n(C)n1,-12
CCOc1ccc(C=NNc2ccc(S(=O)(=O)Nc3ccccc3C(=O)O)cc2[N+](=O)[O-])cc1OC,2
COc1ccccc1CNC(=O)COC(=O)c1cc(=O)[nH]c2ccccc12,-8
CN(CC(=O)Nc1cccc(S(=O)(=O)NC2=NCCC2)c1)Cc1cccc(F)c1,-3
Cc1noc(C)c1CCC(=O)Nc1c(C(C)C)cccc1C(C)C,-9
Cc1nn2c(=O)cc(COC(=O)c3c(F)cccc3Cl)nc2s1,-8
Cc1ccc(NC(=O)CC2OC(=O)c3ccccc32)cc1S(=O)(=O)N1CCCCCC1 (stereo not drawn),-6
O=C(COC(=O)COc1ccccc1)Nc1cccnc1Cl,-1
Cc1ccc(-c2nn(-c3ccc(F)cc3)cc2C(=O)N2CCN(C3CCS(=O)(=O)C3)CC2)cc1 (stereo not drawn),4
C=CCC[C@@H](Cc1ccc(F)cc1)C(=O)OC[C@@H](NC(=O)[C@H](CC=C)CC(=O)NCCO)C(C)(C)C,-4
CC1CCCCC1NC(=O)COC(=O)/C=C/c1ccco1 (stereo not drawn),3
CCOC(=O)N1CCN(C(=O)CNC(=O)c2ccc(Cl)cc2Cl)CC1,-3
O=C(CSc1nnc(-c2ccco2)n1-c1ccccc1)Nc1c(Cl)cc(Cl)cc1C(=O)O,0
C[C@H](CO)N1C[C@H](C)[C@@H](CN(C)C(=O)Nc2ccc(C(F)(F)F)cc2)Oc2ccc(NC(=O)Nc3ccc4c(c3)OCO4)cc2C1=O,4
CCCCc1nnc(NC(=O)CCN2C(=O)C3CC=CCC3C2=O)s1 (stereo not drawn),-2
COC(=O)C1=C(c2ccc3ccccc3c2)C[C@@H]2CC[C@H]1N2C(=O)NCCO,2
Cc1ccccc1N1CCN(C(=O)c2cc(C3CC3)nn2-c2ccccc2)CC1,2
C/C(=N\NC(=O)c1ccc(N2CCCC2=O)cc1)c1ccccc1,-5
O=[N+]([O-])c1ccc(Cc2ccccn2)cc1,0
CCOc1ccc(NS(=O)(=O)c2ccc3[nH]c(=O)[nH]c3c2)cc1,-6
O=C(NN1C(=O)NC2(CCCCC2)C1=O)c1cccs1,1
CN1CCN(Cc2ccc3ccccc3c2)CC1,1
O=C1CC(c2ccc(O)cc2)Oc2ccccc21 (stereo not drawn),-1
O=C(Nc1ccc(Cl)c(Cl)c1)c1ccccc1,9
Cc1ccc2nc(SCC(=O)N(C)C3CCS(=O)(=O)C3)[nH]c2c1 (stereo not drawn),-6
CCOC(=O)c1ccc(S(=O)(=O)Nc2cc(S(=O)(=O)Nc3ccc(OC)cc3)ccc2O)cc1,-5
Cc1ccc(C)c(S(=O)(=O)Nc2ccc3cn[nH]c3c2)c1,4

# Gathered by group: the entries above containing a COOH group.
SMILES,Mtb betalactam
CC/C=C\C/C=C\C/C=C\CCCCCCCC(=O)O,-7
C#CCOCCOCCOCCNc1nc(N2CCOCC2)nc(N2CCN(C(=O)CCCCCCCCCCNC(=O)[C@@H](CCC(=O)O)n3cc(CCCCCN)nn3)CC2)n1,2
CCOc1ccc(C=NNc2ccc(S(=O)(=O)Nc3ccccc3C(=O)O)cc2[N+](=O)[O-])cc1OC,2
O=C(CSc1nnc(-c2ccco2)n1-c1ccccc1)Nc1c(Cl)cc(Cl)cc1C(=O)O,0

# (listing goes on)
SMILES,Mtb betalactam
CC(C)N(Cc1ccccc1)C(=O)COC(=O)c1cc(S(=O)(=O)N(C)C)ccc1N1CCCC1,-15
COc1ccc(C(c2c(NC(=O)c3ccco3)sc(C)c2C)N2CCOCC2)cc1OC (stereo not drawn),6
CN(CCCCCCCCCCN(C)C(=O)Oc1cccc([N+](C)(C)C)c1)C(=O)Oc1cccc([N+](C)(C)C)c1,100
CC(C)(O)c1cc2ccccc2c(=O)o1,5
CCN1CCN(C(=O)C2CC(=O)N(c3ccc(Cl)cc3)C2)CC1 (stereo not drawn),6
Cc1ccc(NC(=O)CN(C)C(=O)c2cccc(S(=O)(=O)N3CCc4ccccc43)c2)cc1,-1
CN1CCN(C(=O)CCN2C(=O)/C(=C\c3ccc(F)cc3)SC2=S)CC1,-10
O=C(COC(=O)c1ccc(Br)cc1)Nc1cccnc1Cl,3
COc1cc(OC)cc(C(=O)N[C@H](C(=O)Nc2c(C)n(C)n(-c3ccccc3)c2=O)C(C)C)c1,-2
O=C(COC(=O)/C=C/c1cccc([N+](=O)[O-])c1)Nc1ccc(Cl)cn1,-1
CCOC(=O)c1ncn2c1[C@@H]1CCNC1C(=O)c1cc(OC)ccc1-2 (stereo partly drawn),6
COc1ccc(NC(=O)COC(=O)CCC2CCCCC2)cc1,5
O=C(CN1CSCC1=O)N1CCN(S(=O)(=O)c2ccc(Cl)cc2)CC1,2
CCN(C[C@H]1N[C@@](C)(C(=O)OC)[C@H]2C(=O)N(Cc3ccccc3)C(=O)[C@@H]12)S(=O)(=O)c1ccc(C(C)(C)C)cc1,7
CCOc1ccc(S(=O)(=O)Nc2cccc(C(=O)NCCCN3CCOCC3)c2)cc1,2
Cn1cnnc1SCC(=O)NN1C(=O)NC(C)(c2ccccc2)C1=O (stereo not drawn),-6
CCc1nnc(NC(=O)c2cccc(S(=O)(=O)N3CCN(C(C)=O)CC3)c2)s1,0
O=C1C=C(c2ccc3ncccc3c2)C[C@@H](c2ccc(F)cc2)C1,51
O=C(c1ccc(F)cc1)N1CCOC(c2nc(-c3ccc(F)cc3)no2)C1 (stereo not drawn),0

# Only part of the results is shown (hit frequency here may not be typical).
